HSV replic up: HSV replication enhancement; AID 1956; 220,000 tested, 0.005% active; HSV replication augmentation in cells, fold increase; maximum fold increase;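 active = peak rise of 1.5-fold or more in the series; inconclusive = self-fluorescent or not available for retest; tested in PC3 cells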;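 also: first round at 10 µM; read as green reporter fluorescence; hits show the peak of a series up to 25 µM; 1 = signal of infected wells without compound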
GALR2 agonist: agonists of human galanin receptor 2 (GALR2); activation, %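 (tested at 5 µM)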; O43603; 140,000 tested, 0.48% active; GALR2-expressing cells, agonist activation read-out; AID 803;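 active = above mean plus 3 SD of all compounds, about 5% in these data, not always enough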;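 also: 0% = vehicle buffer wells and 100% = reference agonist at full effect; tested in CHO reporter cells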
Target sequence (O43603 whole entry, looked up): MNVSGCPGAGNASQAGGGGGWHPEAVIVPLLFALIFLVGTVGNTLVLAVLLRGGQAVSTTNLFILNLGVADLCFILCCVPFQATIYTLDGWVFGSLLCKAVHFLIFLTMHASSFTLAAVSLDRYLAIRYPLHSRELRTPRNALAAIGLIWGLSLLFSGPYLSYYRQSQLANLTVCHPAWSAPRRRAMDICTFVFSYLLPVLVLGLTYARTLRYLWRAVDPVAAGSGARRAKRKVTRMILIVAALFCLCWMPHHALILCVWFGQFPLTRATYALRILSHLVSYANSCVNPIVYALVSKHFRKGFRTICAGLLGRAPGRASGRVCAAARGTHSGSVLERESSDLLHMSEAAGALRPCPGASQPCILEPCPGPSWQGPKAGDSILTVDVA
PKD1 inh: inhibitors of human PKD1 kinase | Q15139 | PKD1 kinase fluorescence polarization assay | inhibition, %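 (about 10 µM by stock and volumes)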 | 200,000 tested, 0.056% active | AID 797;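 active = inhibition of 50% or more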;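 also: controls were vehicle for no effect and a reference inhibitor for full effect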
RGS16-Gao: modulates binding between human RGS16 and Galphao | O15492+P09471 | binding response (% of control), % at 10 µM | 220,000 tested, 0.38% active | AID 1441 | bead-based flow cytometry RGS16-Galphao binding, fluorescence; actives lie on both sides;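 active = below 25% or above 175%, edge rows of some plates excepted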;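 also: Galphao activated by GDP with aluminum fluoride before binding; 100% = wells without compound and 0% = beads without RGS; some results beyond the cut were filed as inactive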
Target sequence (O15492 whole entry, looked up): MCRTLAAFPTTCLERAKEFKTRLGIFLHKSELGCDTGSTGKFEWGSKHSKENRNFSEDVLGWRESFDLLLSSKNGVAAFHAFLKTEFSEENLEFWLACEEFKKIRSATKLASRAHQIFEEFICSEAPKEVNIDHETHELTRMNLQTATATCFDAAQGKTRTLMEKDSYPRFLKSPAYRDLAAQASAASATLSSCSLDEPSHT
Target sequence (P09471 whole entry, looked up): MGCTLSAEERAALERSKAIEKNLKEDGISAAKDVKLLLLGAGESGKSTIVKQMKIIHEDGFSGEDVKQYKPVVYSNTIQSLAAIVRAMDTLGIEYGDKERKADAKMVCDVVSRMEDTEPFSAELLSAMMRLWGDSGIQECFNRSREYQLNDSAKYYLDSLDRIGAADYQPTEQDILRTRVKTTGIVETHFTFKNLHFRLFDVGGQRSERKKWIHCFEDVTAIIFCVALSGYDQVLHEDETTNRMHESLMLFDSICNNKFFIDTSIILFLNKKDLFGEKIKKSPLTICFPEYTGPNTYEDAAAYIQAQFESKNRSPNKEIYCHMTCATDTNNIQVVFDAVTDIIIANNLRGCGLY
INS promoter inh: TRM-6 insulin promoter activity inhibition; 130,000 tested, 0.9% active; inhibition, % at 2 µM; AID 1273; TRM-6 cells (human fetal islet line), insulin promoter-eGFP reporter, imaging; reporter expression induced with tamoxifen;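 active = inhibition above the mean plus 3 SD, with well images judged a real hit on visual review, cut at about 60% in these data, passing the limit was not always enough; inconclusive = inhibition over the cutoff but images rejected on review; inactive = inhibition not above the cutoff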
INS promoter inh cell count: recorded beside INS promoter inh, whose call it bears; normalized cell count, %; measured here: cell count, toxicity; reference of the scale not given here;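 cells exposed to compound for 48 h; stained nuclei by imaging scaled within each plate; lower means fewer cells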
HSV replic up primary fold: also measured in HSV replic up; calls as there; fold increase; compound at 10 µM; measured here: primary screen fold increase 10 uM; tested in PC3 cells;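 GFP signal in the first replicate; 1 = infected wells without compound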
* marks the source's active call; other numbers are inactive results; i = inactive; ? = inconclusive; nt = not tested or not shown.

mol	RGS16-Gao	GALR2 agonist	PKD1 inh	INS promoter inh	HSV replic up	INS promoter inh cell count	HSV replic up primary fold
Cc1ccc(O)c(NC(=O)C2CC(c3c(F)cccc3Cl)=NO2)c1 (centres undefined)	99.1	-1.6	-8.6	-52.2	i	122.7	0.84
Nc1ccc2c(c1)C/C(=C/c1ccco1)C2=O	87.6	-1.6	2.9	nt	i	nt	1.03
CC[n+]1c(/C=C2\Sc3ccccc3N2C)ccc2cccc(C)c21	99.9	nt	-11.9	nt	nt	nt	nt
O=C(Nc1cccc2c1CCCC2)c1cc([N+](=O)[O-])ccc1Cl	100.1	-3.2	-11.1	-65.5	i	88.8	0.6
C/C(=N\NC(=O)c1ccc(CN2CCOCC2)cc1)c1ccc(NC(=O)c2ccccc2)cc1	103.0	nt	2.7	nt	i	nt	0.96
O=C(N=Nc1c(O)[nH]c2ccccc12)c1cc(NS(=O)(=O)c2cccs2)cc(NS(=O)(=O)c2cccs2)c1	99.2	nt	-1.7	nt	i	nt	0.99
COCCNC(=O)c1ccc2c3n(nc2c1)-c1ccc(Cl)cc1CO3	104.5	nt	nt	nt	i	nt	0.9
COC(=O)c1[nH]c2ccccc2c1NC(=O)CN1CCN(C(=O)c2ccco2)CC1	98.1	0.7	10.4	90.9*	i	79.8*	0.9
CN(C)S(=O)(=O)c1ccc2nnn(O)c2c1	96.8	nt	-6.5	-18.2	i	108.4	1.03
CCOc1ccc(NC(=O)C(=O)NCCCn2ccnc2)cc1	100.9	-2.0	-10.3	50.0	i	75.2	1.24
CN1C(=O)C(CC(=O)Nc2ccc(F)cc2)N(NC(=O)c2cccc(F)c2)C1=S (centres undefined)	101.0	nt	nt	nt	i	nt	1.05
COc1ccc(NC(C)C(=O)Nc2ccc(C(C)(C)C)cc2)cc1Cl (centres undefined)	91.5	0.1	-7.7	0.0	nt	194.7	nt
O=C(COC(=O)Cc1cccc(C(F)(F)F)c1)NC1CC1	6.5*	nt	0.6	63.6	i	110.7	1
COc1cc(O)c(C(CCN2CCCC2)c2cc(OC)c(OC)c(OC)c2)c(OC)c1 (centres undefined)	107.4	nt	nt	nt	i	nt	0.83
CCOC(=O)N1CCN(c2ncnc3c2[nH]c2ccc(F)cc23)CC1	97.5	-1.5	4.1	13.9	i	109.2	0.897

Additional structures.
mol	RGS16-Gao	GALR2 agonist	PKD1 inh	INS promoter inh	HSV replic up	INS promoter inh cell count	HSV replic up primary fold
CSc1nnc(-c2sc(-c3ccccc3)nc2C)n1C	67.5	-1.9	3.4	-13.3	i	74.7	0.69
O=C(NCCC1=CCCCC1)C1CCN(S(=O)(=O)N2CCCC2)CC1	99.2	nt	-2.2	7.1	i	123.3	0.97
C/C(CCC(=O)OC[C@H]1O[C@H](C#Cc2ccccc2)C=C[C@@H]1Oc1ccc(C)cc1)=N\OC[C@@H](O)[C@H]1O[C@@H]2OC(C)(C)O[C@@H]2[C@H]1O	101.1	-0.2	-6.8	-10.0	nt	91.3	nt
O=c1c2[nH]c3ccccc3c2ncn1CCCn1ccnc1	109.8	-3.2	-2.1	-32.4	i	195.1	0.94
O=c1cc(-c2ccc(O)cc2)oc2c(C3OCC(O)C(O)C3O)c(O)c(C3OC(CO)C(O)C(O)C3O)c(O)c12 (centres undefined)	98.1	nt	nt	nt	i	nt	1.05
Cc1csc2nc(CSc3nc4ccccc4o3)cn12	108.1	-1.8	3.5	42.9	i	114.5	0.87
CCOc1ccc(/C(=N\O)C(C)NO)cc1 (centres undefined)	105.2	0.2	2.6	42.9	i	91.8	0.94
C=CCn1c(Cc2c[nH]c3ccccc23)nnc1SCC(=O)NCc1ccccc1	38.3	-1.6	2.3	-68.6	i	165.7	0.92
CCNC(=O)Cn1cc(C#N)c2ccccc21	110.0	-2.7	-7.6	-425.0	i	74.6	0.99
CCOC(=O)C1=C(C)Nc2nc3ccccc3n2C1c1ccc(O)cc1 (centres undefined)	98.8	nt	nt	nt	i	nt	0.89
COC(C[C@@H](O)C[C@@H](O)COCc1ccccc1)OC	96.7	nt	nt	nt	i	nt	0.92
Cc1nc2c(C(=O)NCc3ccccc3)c[nH]n2c(=O)c1Cl	99.1	-1.5	2.3	nt	i	nt	0.91
COCC(=O)NC(c1ccccc1)c1ccccc1	105.0	-1.3	0.5	-8.6	i	63.4	1.14
C/C(=N\NS(=O)(=O)c1ccc([N+](=O)[O-])cc1)c1cccs1	64.6	nt	-1.6	nt	i	nt	1.12
O=C1NC(=O)/C(=C/c2ccccc2Oc2ccc(Cl)cc2)S1	110.2	-1.9	-1.4	16.7	i	115.0	0.88

Compounds listed so far with a nitro group on carbon, in the order listed:
mol	RGS16-Gao	GALR2 agonist	PKD1 inh	INS promoter inh	HSV replic up	INS promoter inh cell count	HSV replic up primary fold
O=C(Nc1cccc2c1CCCC2)c1cc([N+](=O)[O-])ccc1Cl	100.1	-3.2	-11.1	-65.5	i	88.8	0.6
C/C(=N\NS(=O)(=O)c1ccc([N+](=O)[O-])cc1)c1cccs1	64.6	nt	-1.6	nt	i	nt	1.12

The list goes on:
mol	RGS16-Gao	GALR2 agonist	PKD1 inh	INS promoter inh	HSV replic up	INS promoter inh cell count	HSV replic up primary fold
O=C(N/N=C/c1cccc(OCc2ccccc2)c1)c1ccc(Br)cc1	102.4	-1.6	-1.4	-13.3	i	166.3	0.8
FC(F)(F)c1nnc2c(Sc3ccc(Cl)cc3)nc3ccccc3n12	100.2	-1.0	-10.9	-20.7	i	54.4	0.95
C=CCN=C1NN=C(c2ccc3c(c2)OCCO3)CS1	101.4	nt	-9.6	-9.5	i	92.2	0.98
CCN(CC)S(=O)(=O)c1cccc(NC(=O)CCNC(=O)c2ccc([N+](=O)[O-])cc2)c1	102.0	nt	nt	nt	i	nt	0.87
CC(=O)c1c(C)[nH]c(C(=O)N2c3ccccc3CC2C)c1C (centres undefined)	106.0	-0.6	-7.2	nt	i	nt	1.05
CCOc1ccc(NS(=O)(=O)c2ccc3[nH]cc(C(=O)NCC4CCCO4)c(=O)c3c2)cc1 (centres undefined)	63.6	-3.9	2.4	nt	i	nt	0.87
COc1ccc(C(=O)NC(=S)Nc2ccc(Cc3ccncc3)cc2)cc1	101.9	nt	0.8	5.9	i	130.3	1.1
OCCC1CN(Cc2ccc(Oc3ncccn3)cc2)CCN1CCc1ccccc1 (centres undefined)	100.5	nt	-7.2	nt	i	nt	0.93
COc1ccc(C2(O)CCN(Cc3nnnn3Cc3ccc(C)cc3)CC2)cc1	102.7	0.7	7.6	-37.5	i	87.1	0.9
O=C(C1=NN[C@@H]2C(=O)N(Cc3ccccc3)C(=O)[C@H]12)c1ccc(F)cc1	100.6	nt	nt	nt	i	nt	0.91
CC(C(=O)N1CCCCC1)N1C(=O)c2ccccc2C1=O (centres undefined)	99.3	-0.9	4.1	-7.7	i	95.2	1.07
Cc1ccc(OCc2nnc(NC(=O)OCC(C)C)s2)cc1	102.2	-1.5	-4.9	-21.7	i	124.8	1.03
CCC(C)[C@H](NC(=O)NCCCn1ccnc1)C(=O)OC (some centres undefined)	111.4	-1.5	-0.8	-20.7	i	97.8	0.95
CCOC(=O)c1c(C)[nH]c(C)c1C(=O)COC(=O)c1cc2ccccc2cc1OC	104.5	1.1	-6.4	40.7	i	104.5	0.67
N#Cc1nc(-c2cccc(Cl)c2)oc1NCc1cccnc1	100.8	-3.0	-6.9	0.0	i	62.9	0.76

Next results follow:
mol	RGS16-Gao	GALR2 agonist	PKD1 inh	INS promoter inh	HSV replic up	INS promoter inh cell count	HSV replic up primary fold
COc1cc(OC)c2c(C)cc(=O)oc2c1C(CCN1CCN(c2ccccc2)CC1)c1ccc2c(c1)OCO2 (centres undefined)	106.2	nt	nt	nt	i	nt	0.93
COc1ccc(-c2[nH]ncc2CN2CCC(O)(c3ccc(Cl)cc3)CC2)cc1	97.0	nt	nt	nt	i	nt	0.8
C/C(=N\Nc1nc(-c2cc(C)ccc2C)cs1)c1cc2c(ccc3ccccc32)oc1=O	126.8	1.4	-3.5	16.7	i	85.8	0.88
CCc1nnc(SCC(=O)NC2CCCC2)nc1CC	98.8	-2.9	-0.9	-29.6	i	101.7	0.84
O=C(OCc1ccccc1)c1ccc2c(c1)-c1ccccc1C2=O	97.8	-0.9	0.1	-26.1	i	85.7	0.96
NC(=O)COc1cccc(/C=N/NC(=O)c2ccc(-n3cccc3)cc2)c1	100.5	nt	nt	nt	i	nt	0.96
CC1CN(CC(O)COCc2ccc3c(c2)OCO3)CC(C)O1 (centres undefined)	103.4	nt	0.6	-11.8	i	141.2	0.99
CC1CC(C)CN(CCCNC(=O)C2CCN(c3ncnc4c3sc3cccc(F)c34)CC2)C1 (centres undefined)	100.0	nt	nt	nt	i	nt	0.7
O=C(NCCCN1CCOCC1)c1ccc([N+](=O)[O-])cc1[N+](=O)[O-]	97.7	nt	2.3	-25.0	i	71.3	0.98
Cc1c(-c2ccccc2)oc2c(C(=O)OCC(=O)Nc3ccc(F)cc3)cccc2c1=O	101.3	-0.3	-2.0	nt	i	nt	0.99
CCSc1nc(N)c(C#N)c(-c2ccccc2Cl)c1C#N	104.0	0.4	-2.4	-35.5	i	35.1	1.04
COc1ccc(NC(=O)CCNS(=O)(=O)c2ccc3c(c2)c(=O)n(C)c(=O)n3C)cc1	106.1	-1.0	-5.8	27.3	i	169.6	0.92
O=C(COC(=O)c1ccc(O)cc1O)NCCN1C(=O)CSC1=O	100.9	nt	nt	nt	i	nt	0.89
COc1ccc(-c2cc(=O)c3cc(O)ccc3o2)cc1	104.8	nt	-3.0	nt	i	nt	0.76
CCOC(=O)c1ccc(CSc2nnc(C)n2N)o1	102.1	-0.7	-7.7	0.0	i	170.7	0.85

(listing goes on)
mol	RGS16-Gao	GALR2 agonist	PKD1 inh	INS promoter inh	HSV replic up	INS promoter inh cell count	HSV replic up primary fold
CCS(=O)(=O)N1CCN(C(=O)c2ccccc2)CC1	106.5	-2.6	-0.9	21.4	i	114.1	0.76
COc1ccc(N=C(C)c2sc3ccccc3c2O)cc1	100.9	nt	nt	nt	?	nt	nt
C=CCn1c(C)cc(-c2csc(N)n2)c1C	81.8	0.3	7.2	-28.6	i	83.1	0.84
Cc1nc2c(cnn2-c2ccccc2Cl)c(=O)n1-c1ccc(C(C)C)cc1	100.5	-2.9	-0.3	nt	i	nt	0.81
COc1ccc(S(=O)(=O)N(C)CC(=O)Nc2ccccc2C(F)(F)F)cc1Cl	121.7	5.8	-4.1	-20.8	i	107.5	0.95
O=c1c2ccccc2ncn1CCOCCOc1cccc(Br)c1	107.0	-2.0	-11.7	25.5	i	90.9	0.96
O=C(Nc1cccc(-c2cnc3ccccc3n2)c1)c1ccccc1	72.7	-1.7	-7.2	nt	i	nt	0.92
Cc1cccc(C(CC(=O)O)n2cccc2)c1 (centres undefined)	88.4	0.5	0.0	-67.9	i	123.2	1.11
c1cc2c3c(cccc3c1)C(N1CCCCC1)=N2	102.6	-1.3	-11.1	87.1*	i	75.8*	0.88
Cc1ccc(C)c(SCC(=O)OC/C(O)=C(\C#N)c2nc3ccccc3[nH]2)c1	100.5	nt	-2.5	-40.0	i	108.9	1.05
O=C(NCc1ccco1)/C(=C\C=C\c1ccccc1)NC(=O)c1ccccc1Br	93.1	nt	-4.6	nt	i	nt	0.92
COC(=O)C1C(=O)C2=C(CC1C)Nc1ccccc1NC2c1ccc(C)s1 (centres undefined)	113.3	nt	-7.7	nt	i	nt	1.08
CCC(=O)Nc1cccc(-c2cnc3ccccc3n2)c1	108.2	-2.3	-6.5	8.7	i	112.6	0.7
O=C(c1ccccc1[N+](=O)[O-])N1CC2C3C=CC(C3)C2C1 (centres undefined)	97.9	nt	5.0	50.0	i	88.6	1.04
Brc1ccc(-c2noc(CCc3ccccc3)n2)cc1	nt	-0.3	-4.5	-41.9	i	57.5	0.85

Copied from the list:
For PKD1 inh, O=C(Nc1cccc(-c2cnc3ccccc3n2)c1)c1ccccc1 shows -7.2
For PKD1 inh, CCS(=O)(=O)N1CCN(C(=O)c2ccccc2)CC1 shows -0.9
For RGS16-Gao, O=c1c2ccccc2ncn1CCOCCOc1cccc(Br)c1 shows 107.0

(more compounds)
mol	RGS16-Gao	GALR2 agonist	PKD1 inh	INS promoter inh	HSV replic up	INS promoter inh cell count	HSV replic up primary fold
CC(C)C[C@H](NC(=O)NC(C)C)C(=O)O	102.5	2.3	2.1	-50.0	i	48.4	0.99
CC1(C)CC(C)(O)P(=O)(c2ccccc2)O1 (centres undefined)	93.3	-1.0	5.0	-11.1	i	76.0	0.85
Cc1cc([N+](=O)[O-])nn1CCCC(=O)Nc1cc(Oc2ccccc2)cc([N+](=O)[O-])c1	95.7	-1.2	0.1	7.1	i	159.6	0.85
CC1Cc2ccccc2N1C(=O)c1cnsn1 (centres undefined)	98.0	-2.2	1.9	0.0	i	97.7	1.01
